Screening data deposited in PubChem by National Center for Advancing Translational Sciences (NCATS).
Menin-MLL FL inh: inhibitors of human menin-MLL interaction, wild-type MLL peptide; Fluorescence polarization, fluorescein-MLL peptide displacement from menin; FP activity change, % at 61.4 µM; 290,000 tested, under 10 active; AID 1766; inconclusive = falling polarisation curve, or a change in total fluorescence; inactive = total fluorescence flat and polarisation flat or rising; no compound was filed as active; the % refers to the polarisation; negative = inhibition;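 also: % of control where 0% means no effect; inhibitors lower the polarisation; unlabelled MLL peptide was the positive control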
ClpP mod: qHTS Assay for Activators of ClpP | ATP-dependent Clp protease proteolytic subunit (Bacillus subtilis (strain 168)), P80244 | purified B. subtilis ClpP, FRET peptide cleavage, 20 min | Potency, µM (top dose mostly 57.5 µM), without a hit: top-dose activity change, negative = active | 340,000 compounds, 1.9% hits | AID 651965, 2013; active = well fitted falling curve with a large enough effect; inconclusive = small, poorly fitted or top-dose-only effect; inactive = no such curve, though single readings can be large or run the other way; also: potency is read from the fitted curve at half-maximal effect; the source files actives as falling curves though it sought activators and does not explain the sign; nearly all actives have a fitted effect of over 65% in size; many hits overshoot -100%
Target sequence (P80244 whole entry, looked up): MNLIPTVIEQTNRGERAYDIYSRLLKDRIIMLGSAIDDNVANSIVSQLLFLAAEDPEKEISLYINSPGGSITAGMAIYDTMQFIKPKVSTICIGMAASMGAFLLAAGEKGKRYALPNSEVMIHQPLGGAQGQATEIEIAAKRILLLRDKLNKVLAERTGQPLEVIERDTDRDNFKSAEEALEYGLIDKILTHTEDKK
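FRET quenching reversal measured ClpP activation: 10 microg/mL B. subtilis ClpP at pH 8 with the FRET-FV decapeptide, read at 430 nm after 320 nm excitation. The 20-min minus 0-min signal was scaled between DMSO/no-enzyme wells and ADEP (5.8 microM final).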
gsp antag: antagonizes gsp, the McCune-Albright syndrome mutation | gsp-mutant cells, cAMP HTRF, 30 min; control for the full effect not named in the record | Potency, µM (series often up to 76.9 µM), for inactives: top-dose activity change, negative = inhibition, hits mostly inhibitors | 340,000 compounds, 0.4% hits; active = falling curve of any shape with a large fitted effect; inconclusive = falling curve, mostly with a smaller effect; inactive = flat or rising curve; cell line not stated here;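 also: intracellular cAMP measured with PDE inhibitor Ro 20-1724 present during compound exposure; potency is read from the fitted curve at half-maximal effect; % is scaled to controls: 0 for no effect and ±100 for the full control effect; nearly all actives have a fitted effect of over 65% in size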
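G418-selected cells were plated in DMEM/10% FBS for 16-24 h at 37C, then treated with compounds plus the PDE inhibitor […] (300 uM solution added) for 30 min at 37C. Intracellular cAMP was measured by HTRF after 30 min lysis at room temperature.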
gsp agonist: gsp mutant agonism | gsp mutant cells, cAMP HTRF, 30 min; control for the full effect not named in the record | Potency, µM (highest dose often 76.9 µM), for the others: top-dose activation (cAMP increase), usual class: activators | 340,000 compounds, 0.13% hits | AID 624287; active = well fitted activation curve with a large enough effect; inconclusive = small, poorly fitted or top-dose-only effect, or another doubt; inactive = no such curve, though single readings can be large or run the other way; cell line not stated here;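 also: phosphodiesterase inhibitor Ro 20-1724 added with compounds to block cAMP breakdown; potency is read from the fitted curve at half-maximal effect; nearly all actives have a fitted effect of over 60% in size; about a fifth of the inactives were tested at one dose only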
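Cells in DMEM/10% FBS with G418 were pretreated with compounds in DMSO plus […] (300 uM stock) for 30 min at 37C. cAMP was measured by HTRF (cAMP-d2 plus anti-cAMP antibody-K) after 30 min at room temperature.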
TRPML1 inh: inhibitors of human TRPML1 channel | activity change, negative = inhibition, % (no concentration beside the values) | Q9GZU1 | 390,000 compounds, 0.02% hits | AID 624415 | TRPML1-inducible cells, Ca2+ dye fluorescence, FDSS; hits give low values; inhibition of EC80 agonist-evoked calcium signal; in the data active means activity change below about -50%; inconclusive means about -30% to -50%; inactive means above about -30%;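 also: stimulus is agonist 54-4 at its EC80 concentration; % is scaled to controls: 0 for no effect and ±100 for the full control effect; compound concentration not given in the record; the text of the record puts the active cut at -80%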
Target sequence (Q9GZU1 whole entry, looked up): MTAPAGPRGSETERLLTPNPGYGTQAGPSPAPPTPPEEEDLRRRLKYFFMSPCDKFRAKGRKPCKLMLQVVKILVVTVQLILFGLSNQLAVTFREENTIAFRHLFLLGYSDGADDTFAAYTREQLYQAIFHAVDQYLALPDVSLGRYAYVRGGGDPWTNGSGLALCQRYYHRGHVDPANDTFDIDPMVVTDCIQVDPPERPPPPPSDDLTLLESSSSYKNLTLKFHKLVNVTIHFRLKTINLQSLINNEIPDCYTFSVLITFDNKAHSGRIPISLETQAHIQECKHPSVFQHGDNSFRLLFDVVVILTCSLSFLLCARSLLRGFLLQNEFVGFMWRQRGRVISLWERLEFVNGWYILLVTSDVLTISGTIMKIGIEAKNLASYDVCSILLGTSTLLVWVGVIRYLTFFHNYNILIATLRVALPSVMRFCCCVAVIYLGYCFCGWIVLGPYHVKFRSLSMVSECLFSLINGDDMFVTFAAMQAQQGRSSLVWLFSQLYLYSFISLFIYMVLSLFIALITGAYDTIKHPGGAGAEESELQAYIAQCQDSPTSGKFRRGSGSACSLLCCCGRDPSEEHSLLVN
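TRPML1-DL cells, Tet-induced overnight (~16 h, 37 °C) at 1,500 cells/well, were loaded with Ca8 no-wash dye plus quencher for 45-90 min at room temperature. Compounds were pinned during FDSS kinetic reading; agonist 54-4 at EC80 (4 uM final) then added.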
TRPML1 agonist: human mucolipin-1 channel agonism | Q9GZU1 | TRPML1-expressing cells, Ca2+ dye fluorescence, FDSS; host cell line not named in the record; reference of the full effect not given here | activation, % (test concentration not listed) | 410,000 compounds, 0.12% hits | AID 624414; in the data active = activation above about 50%; inconclusive = about 30% to 50%; inactive = below about 30%; also: 0% is about no effect; the text of the record puts the active cut at 80%
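TRPML1-DL cells, Tet-induced overnight (~16 h, 37 degrees C), loaded 45-90 min at room temperature with Ca8 no-wash calcium dye plus quencher. FDSS fluorescence: 10 s baseline, compound pin-transfer, 110 s agonist read, then EC80 54-4 (4uM final) and 110 s antagonist read.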
* marks the source's active call; other numbers are inactive results; ? = inconclusive; . = not tested or not shown; & = joins results of further samples; [ ] = remark or other dose.

SMILES	Menin-MLL FL inh	ClpP mod	gsp antag	gsp agonist	TRPML1 inh	TRPML1 agonist
C=CCC[C@H](Cc1ccc(F)cc1)C(=O)OC[C@@H](NC(=O)[C@@H](CC=C)CC(=O)N(CCO)Cc1ccccc1)C(C)(C)C	.	-2.0%	-19%	-36%[inhibitor]	-19	1.8
COCCn1c(-c2ccc(OC)cc2)cnc1SCC(=O)Nc1ccc(OC)cc1OC	-1.3	2.3%	-7%	-1%	-5	1.8
O=C(NCCCO)NC(=S)c1cccc2ccccc12	-0.7	.	-3%	4%[15.4 µM]	3	-0.3
CCCc1nc2sc3c(N4CCCCC4)ncnc3c2c2c1CCCC2	.	-1.3%	.	.	32	0.0
O=C(Cn1nnc2ccccc2c1=O)NCc1ccco1	-1.3	-3.5%	-4%[15.4 µM]	16%	2	0.4
CSc1nc2cc(C)nn2c(-c2ccccc2Cl)c1C#N	-1.4	-2.3%	13%	-4%	3	4.0
O=C(CCc1nc2ccccc2n1-c1ccccc1)NCCO	3.2	1.4%	16%	0%[15.4 µM]	2	-0.2
Cc1ccc(OCC(=O)Nc2cccc(S(=O)(=O)NC3=NCCCCC3)c2)cc1C	1.3	14µM*	-21%	-20%	-6	2.4
O=C(Nc1cc(C(F)(F)F)ccc1N1CCOCC1)C1CCCO1 (stereo unspecified)	.	-2.2%	-3%	-70%	14	0.2
Cc1cc(-c2nnnn2-c2cc(Cl)cc(Cl)c2)no1	5.6	.	10%	-5%	4	2.2
COc1cccc(/C=N/NC(=O)C(c2ccncc2)N2CCOCC2)c1 (stereo unspecified)	0.1	.	-4%	5%[15.4 µM]	14	0.9
COc1cc(C(=O)n2cnc3ccccc32)c([N+](=O)[O-])cc1OC	-0.8	1.1%	-3%	-6%	6	-0.4
O=C(N/C(=C/c1ccccc1Cl)C(=O)N1CCCC1)c1ccccc1	-11	.	.	-4%[15.4 µM]	15	-0.6
C[C@H](CO)N1C[C@H](C)[C@H](CN(C)C(=O)Nc2ccc(F)cc2)OCc2cnnn2CCCC1=O	.	-1.8%	.	?	-8	-0.3
COc1cc(/C=C/C(=O)NC(=O)c2ccccc2O)ccc1O	.	-1.7%	?	6%	-14	1.2
CCOC(=O)CNC(c1ccccc1)c1cc(Br)ccc1NC(=O)CCN1CCOCC1 (stereo unspecified)	4.7	-5.6%	-5%	3%	-2	-0.1
COc1cccc(C(=O)Oc2ccc(N3C(=O)CCC3=O)c(C)c2)c1	2.4	.	-3%	-2%	-9	0.6
CCOC(=O)C1CCCN(Cc2c(F)cccc2Cl)C1 (stereo unspecified)	0.8	-1.1%	0%	-29%	-21	0.1
Cc1sc2nc(-c3cccnc3)[nH]c(=O)c2c1-c1ccccc1	2.4	.	-4%	?	6	0.7
CCCCC(=O)N/N=C/c1cc([N+](=O)[O-])ccc1N1CCOCC1	-0.1	-1.4%	2%	-5%	10	-0.6
Cc1ccccc1NS(=O)(=O)c1nnc(NC(=O)c2ccccc2F)s1	-0.6	-0.4%	-14%	8%	-12	-0.3
COC(=O)c1cc(C)sc1NC(=O)CN1CCN(C(=O)C2CCCO2)CC1 (stereo unspecified)	.	-8.5%	0%	-6%[15.4 µM]	-3	-0.3
C=CCN1C(=O)/C(=C/c2ccc(O)c(OC)c2)S/C1=N/c1nccs1	.	-0.8%	2%	?	-16	18
O=c1nc2n(c3cccc(Cl)c13)CCCCC2	-0.4	-6.7%	-5%	43%	-17	2.0
COc1ccc(-c2csc(NCc3ccco3)n2)cc1	3.8	-1.7%	-8%	4%	-6	0.3
(next part)
SMILES	Menin-MLL FL inh	ClpP mod	gsp antag	gsp agonist	TRPML1 inh	TRPML1 agonist
CCN(CC)CCN(C(=O)c1ccc(C(=O)c2ccccc2)cc1)c1nc2cc3c(cc2s1)OCO3	-2.4	0.7%	?	-20%	1	-0.7
COc1ccc(Nc2cc(C(=O)NCCc3ccccc3)c3ccccc3n2)cc1OC	.	133%	.	.	-6	4.3
CC(NC(=O)c1cc2ccccc2oc1=O)c1ccc(O)cc1 (stereo unspecified)	6.7	.	-5%	6%	10	1.1
O=C(CN1CCCCC1)N/N=C/c1ccccc1OCc1ccccc1	2.5	-1.6%	3%	12%	14	0.1
Cn1c(=O)c([N+](=O)[O-])c(NCC2CCCO2)c2ccccc21 (stereo unspecified)	4.2	0.6%	-5%	-35%[inhibitor]	-6	1.7
Cc1cc(=O)oc2c(C)c(OC(C)C(=O)NCCCN3CCOCC3)ccc12 (stereo unspecified)	.	1.2%	6%	-18%	-3	-0.7
NC(=O)Nc1ccc(C(=O)OCC(=O)N2CCCC2=O)cc1	.	-0.2%	9%	-55%[inhibitor]	0	-0.2
CS(=O)(=O)Nc1ccc2c(c1)nc1n2CCOC1	4.5	-2.3%	5%	-22%	-2	-0.5
COc1ccc(C2CC(c3ccccc3)Oc3cc4c(cc32)OCO4)cc1 (stereo unspecified)	0.2&1.5	.	.	.	-3&1	2.8&0.7
Cc1ccc(CNC(=O)c2ccc(S(=O)(=O)N3CCCCCC3)cc2)cc1	.	-2.0%	.	-18%	-4	0.4
Cc1nc2c(c(C)nn2-c2ccccc2)c(C)c1CCC(=O)NCCCOC(C)C	1.4	.	-14%	22%	1	1.3
COc1ccccc1C(=O)N/N=C/c1cnc2ccccc2n1	.	?	5%	-10%[15.4 µM]	-2	0.9
COc1ccc(-c2noc(-c3ccccc3C(=O)Nc3cccnc3)n2)cc1	0.5	-10%	-17%	-3%	36	1.4
O=C(NCCc1ccc(C(F)(F)F)cc1)C1CCC(=O)N(CCc2cccc(F)c2)C1 (stereo unspecified)	.	-4.3%	-14%	9%[15.4 µM]	-9	1.3
COc1ccc(S(=O)(=O)N2CCc3ccccc3C2)cc1OC	2.0	0.7%	-1%	-41%[inhibitor]	18	0.2
Cn1c(CBr)c(C(=O)c2ccc([N+](=O)[O-])cc2)c(=O)n(C)c1=O	1.0	0.6%	7%	44%[15.4 µM]	11	-0.6
Cc1ccc(NC(=O)CN(C)CC(=O)N(CC(C)C)c2c(N)n(CC(C)C)c(=O)[nH]c2=O)c(C)c1	.	-1.8%	10%	-4%	-21	-0.1
COc1ccc2c(c1)CCc1c(C(=O)N3CCCCCC3)noc1-2	5.2	0.7%	?	-5%	-4	1.3
CCOc1cc2[nH]c(=O)n(CCCC(=O)N3CCN(c4cccc(Cl)c4)CC3)c(=O)c2cc1OCC	.	-17%	.	.	7	1.9
CCC(=O)Nc1c(C)c(CC)nc2ccccc12	3.7	0.9%	13%	1%	-26	0.4
O=C(COc1ccccc1C(=O)Nc1ccccc1)c1ccc(Br)cc1	0.9	.	-12%	-1%[15.4 µM]	-3	-0.5
CCc1ccccc1NC(=O)Cn1c(SCc2ccc(F)cc2)nc2ccncc21	.	-14%	.	.	-6	-1.1
COc1ccc(NC(=O)/C(C#N)=C/c2cc(C)n(-c3ccc(N4CCOCC4)c([N+](=O)[O-])c3)c2C)cc1	1.2	-1.9%	-10%	-69%[inhibitor]	-7	-0.2
c1ccc2sc(SCc3ccc(-c4nnco4)cc3)nc2c1	1.0	-1.1%	5%	-45%[inhibitor]	5	0.1
COc1cc2c(cc1OC)CN(C(=O)CN1C(=O)c3ccc([N+](=O)[O-])cc3C1=O)CC2	.	0.5%	-11%	-42%[inhibitor]	14	1.0
(further entries)
SMILES	Menin-MLL FL inh	ClpP mod	gsp antag	gsp agonist	TRPML1 inh	TRPML1 agonist
CC(C)C[C@@H](CN)NC(=O)c1nc[nH]c1C(=O)N[C@@H](C)C(=O)CNC[C@H](CC(C)C)NC(=O)c1nc[nH]c1C(=O)N[C@@H](Cc1ccccc1)C(=O)O	.	2.9%	6%	.	-6	-0.9
Cc1ccc(S(=O)(=O)N2CCN(C(=O)c3sccc3-c3ccccc3)CC2)cc1	.	-14%	-22%	-3%	-20	0.4
COc1cc(C(C)=O)ccc1OCC(=O)Nc1cc(C)on1	.	-15%	4%	0%	18	-0.3
Cc1ccc(S(=O)(=O)NCC(=O)NCCc2c[nH]c3ccccc23)cc1C	.	5.1%	-1%	-47%[inhibitor]	-5	-0.4
Cc1ccc(F)c(S(=O)(=O)NC(=O)C2(C)CCN2C(=O)Cc2cccs2)c1 (stereo unspecified)	.	-7.8%	.	.	-24	-0.2
O=C(N/N=C/c1ccco1)c1ccccn1	1.9	-0.6%	2%	11%	9	-0.3
O=C(CN1CCCCCC1)N/N=C/c1cccc(Cl)c1	1.2	0.8%	8%	-1%	-27	-0.6
Nc1ccn(C2CCCCO2)c(=O)n1 (stereo unspecified)	.	.	7%	?	-6	0.4
CCC1CCCCN1CCCNC(=O)c1ccc2c(c1)N(Cc1ccccc1)C(=O)c1ccccc1S2(=O)=O (stereo unspecified)	.	0.2%	.	.	-26	0.1
Fc1ccc(-c2noc3ncnc(N4CCCCC4)c23)cc1	.	-15%	.	.	-18	1.7
CCN1CCN(C(=S)NCC2CCCO2)CC1 (stereo unspecified)	4.5	-1.7%	-1%	-2%	8	2.6
Cc1c(-c2nc(-c3cccnc3)no2)cccc1[N+](=O)[O-]	3.9	-10%	8%	13%[15.4 µM]	-7	-1.4
CCCN(CCC)CCCNC(=O)C1c2cc(OC)c(OC)cc2C(=O)N(C)C1c1cccnc1 (stereo unspecified)	-0.4	-6.5%	-15%	-15%	-4	-0.2
COc1ccc(Cl)cc1NC(=O)CN(C)C(=O)C1COc2ccccc2O1 (stereo unspecified)	.	-2.7%	-24%	2%	-3	0.9
Cn1c(=O)c2c(ncn2CCC(=O)N/N=C/c2ccccc2)n(C)c1=O	0.7	.	11%	31%[15.4 µM]	2	-0.2
CCN(Cc1ccccc1)C(=O)c1cccc(S(=O)(=O)N2CCN(c3ccc(F)cc3)CC2)c1	.	-9.4%	-12%	-52%[inhibitor]	-8	-0.8
Cc1cccc(NC(=O)COc2coc(CN3CCN(Cc4ccccc4)CC3)cc2=O)c1	.	1.0%	-11%	8%[15.4 µM]	-2	2.0
O=C(COC(=O)c1cc(Cl)ccc1O)NCCC1=CCCCC1	.	-2.3%	6%	-55%[inhibitor]	5	3.6
O=C(Cn1nc2n(c1=O)-c1ccccc1SC2)N/N=C/c1cccs1	0.9	.	11%	2%[15.4 µM]	3	-0.1
O=C1CCN(S(=O)(=O)c2ccccc2)CCN1CCOCc1ccccc1	0.3	1.1%	9%	-24%	-9	-0.5
Cc1cc(C)cc(NC(=O)CCCc2nnc3n(CC(C)C)c(=O)c4sccc4n23)c1	.	-1.4%	.	.	1	-0.7
CC(C)n1c(N)c(C#N)c2ccc([N+](=O)[O-])cc2c1=O	?	-3.1%	-13%	?	.	.
